ugtP null kill = growth inhibition of ugtP-null S. aureus, primary screen, RN4220 ugtP deletion, OD600; 330,000 compounds, 0.54% hits; growth inhibition, % (concentration not given with the values); 16 h; some inactives read as strong as hits; AID 1259309, 2017;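 active = z-score under -3 and OD600 up to 0.15 on both plates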;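 also: plate controls were untreated wells for no effect and antibiotic for full effect; wells of about 80 µL received 100 nL stock; the first replicate is given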
BJeLR viability = MLPCN primary cell-based screen for lethality selective to Ras in HRASV12 cells; BJeLR (HRASV12) viability, CellTiter-Glo ATP luminescence, 48 h; reference of the scale not given here; inhibition, % (no concentration beside the values); 300,000 compounds, 0.17% hits; AID 1554, 2009;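 active = replicate mean above 50%; inconclusive = above 50% but judged a plate artefact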;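 also: 50 nL library stock added to about 25 µL; numbers are from one replicate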
Mtb hypoxia inh = PubChem AID 1159583 | M. tuberculosis hypoxia-regulated fluorescent reporter, fluorescence | fluorescence inhibition, % (concentration not given with the values) | 300,000 compounds, 0.1% hits;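 active = 35 to 45% if threefold the growth effect, above 45% if 1.5-fold the growth effect; inactive = the rest, general growth blockers included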;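 also: wells of about 50 µL received 100 nL stock; 0% = vehicle wells and 100% = reference inhibitor wells; whole bacteria with a GFP reporter of the hypoxia response; strong numbers were not always called active; many hits fall short of the cut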
RN4220 kill = growth inhibition of S. aureus RN4220, primary screen, OD600 | 16 h | inhibition, % (no concentration beside the values) | 330,000 compounds, 0.33% hits;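 active = z-score of -3 or lower and OD600 up to 0.18 on both plates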;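 also: plate controls were untreated cells for no effect and reference antibiotic for full effect; stock transfer was 100 nL into about 80 µL; one replicate is shown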
PrP 5UTR inh = inhibition of PrP 5' UTR reporter expression | cell-based PrP 5' UTR mRNA reporter, plate reader | inhibition, % (test concentration not listed) | 340,000 compounds, 0.35% hits;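 active = every replicate at 50% or more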;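 also: 0 = median of the neutral control wells; tested in H4 reporter cells; numbers are from one replicate; inactives centre near -14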
Bead autofluor = counter-screen for toxin protease inhibitors: compound fluorescence; 360,000 compounds, 3.1% hits; compound autofluorescence counterscreen, microsphere flow cytometry; hits give high values; fluorescence intensity (no concentration beside the values);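 active = at least 3 SD above the mean of all compounds, about 16000 in these data; inconclusive = too few beads counted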;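 also: 100 nL of 1 mM stock went into each well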
Mtb hypoxia inh growth = recorded beside Mtb hypoxia inh, whose call it bears; growth inhibition, %; measured here: M. tuberculosis growth (absorbance);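 0% = vehicle and 100% = reference antibiotic; read after six days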
* = called active by the depositor; ? = inconclusive; / = not tested or not shown; & = joins results of further samples; ! = not confirmed by another sample.

[1] C=CCNc1nc(-c2cccs2)c(CC(=O)O)s1
[2] COc1ccc(/C=C2\CCn3c2nc2cc(C(=O)O)ccc2c3=O)cc1O
[3] Cn1c2c(c(=O)n(C)c1=O)C(c1ccccc1Cl)CC(=O)N2 (configuration not stated)
[4] CC(C)OCCCn1c(=N)c(S(=O)(=O)c2ccccc2)cc2c(=O)n3ccccc3nc21
[5] COc1ccc(C2/C=C\CN(S(=O)(=O)c3cccs3)CC(=O)N2Cc2ccc(F)cc2)cc1 (configuration not stated)
[6] Cc1ccc(NC(=O)[C@@H](C)NC(=O)[C@@H]2Cc3ccccc3CN2)cc1
[7] c1ccc(-c2nc3cc4ccccc4cc3[nH]2)nc1
[8] CCN(CC)C(=O)CSc1nc(O)c(Cc2ccccc2)c(=O)n1-c1ccccc1

assay / entry,1,2,3,4,5,6,7,8
ugtP null kill,7.1,-1.2,1.0,-1.3,/,4.5,-18.3,8.8
BJeLR viability,-7.3,2.1,1.9,6.9,6.3,-4.2,12.9,-0.4
Mtb hypoxia inh,13.0,2.6,2.5,1.2,/,2.3,8.8,/
Mtb hypoxia inh growth,8.8,-11.3,-2.8,4.9,/,3.9,9.0,/
RN4220 kill,1.5,-1.9,6.6,-1.8,/,2.0,2.1,0.6
PrP 5UTR inh,-14.6,-18.1,-13.4,-5.2,10.6,-15.6,0.9,-14.7
Bead autofluor,5371,2002,4229,5816,3104,5443,3785,/

[9] COc1ccc(C(CNC(=O)COc2ccccc2-c2ccccc2)N2CCOCC2)cc1 (configuration not stated)
[10] Cn1c(=O)cc(SCC(=O)Nc2ccccn2)c2ccccc21
[11] Cc1nnc(N(C)C(=O)c2ccccn2)s1
[12] CC[C@]12c3[nH]c4ccc(OC)cc4c3CCN1C(=O)C(CC(=O)NCCCn1ccnc1)C[C@@H]2C(=O)N1CCN(C(=O)c2ccco2)CC1 (some centres not stated)
[13] Nc1c(S(=O)(=O)O)cc(NC(=O)c2ccccc2)c2c1C(=O)c1ccccc1C2=O
[14] C=CCc1cc(OC)ccc1OCC(O)CN1CCN(c2ccc(OC)cc2)CC1 (configuration not stated)
[15] CCc1cc(=O)[nH]c(SCC(=O)Nc2cc(C)on2)n1
[16] C=CCc1cccc(C=NNC(=O)C(C)Nc2cccc(C)c2)c1O (configuration not stated)

assay / entry,9,10,11,12,13,14,15,16
ugtP null kill,7.1,4.8,15.2,2.6,-4.3,-4.0&6.6,3.5,-0.3
BJeLR viability,7.3,2.3,-2.0,/,4.4,-3.4&6.0,3.1,/
Mtb hypoxia inh,2.1,8.4,-7.5,0.7,20.6,11.0&-0.9,0.8,8.9
Mtb hypoxia inh growth,3.4,1.3,-3.7,3.4,-5.8,8.6&8.6,9.3,5.5
RN4220 kill,4.4,3.1,18.5,0.8,7.9,7.1&4.2,-0.2,-1.4
PrP 5UTR inh,-7.8,/,-24.4,-18.3,1.9,3.4&-4.6,-14.1,/
Bead autofluor,4742,/,?,3962,3656,22414*!,5950,/

[17] Cc1c(C(=O)NC(=S)NCc2cccnc2)oc2ccccc12
[18] CCc1nnc(NC(=O)c2ccc(S(=O)(=O)N(CC)Cc3ccccc3)cc2)o1
[19] C(=C\c1ccco1)/C1=NN(c2ccccc2)C(c2ccco2)C1 (configuration not stated)
[20] Cc1ccc(S(=O)(=O)c2c(C)cc(C)nc2Oc2cccc(C(F)(F)F)c2)cc1
[21] CC(=O)NC(c1cccs1)c1cc(Cl)c2ccccc2c1O (configuration not stated)
[22] C=CCC(CC=C)(NC(=O)c1ccccc1)c1ccccc1
[23] CNc1nccc(-c2ccc(Cl)cc2)c1C#N
[24] S=C(NC1CCCC1)N1CCN(c2ccc(Cl)cc2)CC1

assay / entry,17,18,19,20,21,22,23,24
ugtP null kill,7.0,4.9,-5.0,8.6,15.3,-2.0,7.3,-0.6
BJeLR viability,10.5,-1.8,-6.2,30.2,/,5.1,-1.7,-12.4
Mtb hypoxia inh,-1.1,-2.3,15.6,9.7,10.0,/,18.0,6.6
Mtb hypoxia inh growth,5.0,-4.2,4.8,0.5,7.6,/,4.9,6.2
RN4220 kill,-1.1,43.5,-1.9,-16.6,44.5,5.8,9.4,1.7
PrP 5UTR inh,-8.5,-6.5,-33.3,-3.9,-11.0,-26.4,-0.5,-1.7
Bead autofluor,5327,4729,5304,3061,3420,3136,3316,2119

The final two records of the part before are carried over, then new ones follow:
[23] CNc1nccc(-c2ccc(Cl)cc2)c1C#N
[24] S=C(NC1CCCC1)N1CCN(c2ccc(Cl)cc2)CC1
[25] CCOC(=O)C1=C(C)N(c2ccccc2)C(=O)/C1=C\c1ccco1
[26] COCCOC(=O)C1=C(C)N(c2ccccc2)C(=S)NC1c1ccccc1C(F)(F)F (configuration not stated)
[27] COc1ccccc1OCC(=O)Nc1ccc(S(=O)(=O)N2CCOCC2)cc1
[28] CCOC(=O)Cc1nnc(NC(=O)CSc2ccc(Cl)cc2)s1
[29] O=c1[nH]c(CN2CC=C(c3ccccc3)CC2)nc2scc(-c3ccccc3)c12
[30] CCOC1OC(C(=O)N2CCCCCCC2)=CC(c2cn(C(C)=O)c3ccccc23)C1CCCO (configuration not stated)
[31] COc1cccc(C=NNC(=O)c2cnccn2)c1O
[32] COc1ccccc1OCCC(=O)NNC(=O)c1ccccc1F

assay / entry,23,24,25,26,27,28,29,30,31,32
ugtP null kill,7.3,-0.6,10.6,24.5,6.0,-5.2,9.0,-0.2,-1.3,7.8
BJeLR viability,-1.7,-12.4,-3.2,1.0,-3.3,4.9,9.1,/,/,/
Mtb hypoxia inh,18.0,6.6,18.6,5.8,10.0,-6.7,12.1,7.1,14.4,6.7
Mtb hypoxia inh growth,4.9,6.2,0.4,7.2,6.1,-6.4,3.1,4.5,4.8,1.1
RN4220 kill,9.4,1.7,6.2,3.5,2.1,0.8,-2.9,6.2,-2.7,1.5
PrP 5UTR inh,-0.5,-1.7,-11.9,0.1,-29.5,-2.4,-29.6,/,/,-24.6
Bead autofluor,3316,2119,1908,4572,6616,10407,11531,/,/,8834

Taken from above for reference:
[26] COCCOC(=O)C1=C(C)N(c2ccccc2)C(=S)NC1c1ccccc1C(F)(F)F (configuration not stated)
[27] COc1ccccc1OCC(=O)Nc1ccc(S(=O)(=O)N2CCOCC2)cc1

assay / entry,26,27
ugtP null kill,24.5,6.0
BJeLR viability,1.0,-3.3
Mtb hypoxia inh,5.8,10.0
Mtb hypoxia inh growth,7.2,6.1
RN4220 kill,3.5,2.1
PrP 5UTR inh,0.1,-29.5
Bead autofluor,4572,6616

The list continues:
[33] CCc1cc2ccc(OC)cc2nc1SCC(=O)Nc1cc(C)on1
[34] CCCC(=O)N1CC(=O)Nc2ccc(C)cc2C1c1ccccc1 (configuration not stated)
[35] COc1ccc(CN(C2CC2)S(=O)(=O)c2ccccc2Br)cc1
[36] Cc1ccc(S(=O)(=O)Nc2cccc3c2O[C@H](CN(C)Cc2ccccc2)[C@@H](C)CN([C@H](C)CO)C3=O)cc1
[37] O=C(CCNC(=O)c1ccco1)Nc1ccccc1
[38] Cc1nc(NC(=O)C(C)Oc2cccc(Cl)c2)sc1C(=O)N(C)C (configuration not stated)
[39] C=CCNC1=C(Cl)C(=O)N(Cc2ccccc2)C1=O
[40] O=C(O)c1cc(S(=O)(=O)N2CCN(c3ccccn3)CC2)ccc1Cl

assay / entry,33,34,35,36,37,38,39,40
ugtP null kill,9.6,-0.2,30.1,4.8,-1.1,10.3,3.6,8.7
BJeLR viability,-7.7,6.6,/,/,2.9,6.5,9.1,12.4
Mtb hypoxia inh,/,10.2,-3.9,-5.8,5.2,8.0,0.2,-7.3
Mtb hypoxia inh growth,/,-4.3,-1.7,6.1,-0.3,5.6,8.6,4.2
RN4220 kill,3.5,0.3,7.8,5.8,0.8,3.9,2.1,9.1
PrP 5UTR inh,-23.4,-16.4,-7.0,-12.0,14.2,-27.4,-21.7,-28.4
Bead autofluor,4234,3562,4155,2933,3085,2568,5442,5117

[41] CC(C)(C)C(=O)/C=c1\[nH]c(=O)/c(=C\c2ccc(C#N)cc2)s1
[42] COc1ccccc1NC(=O)CSc1nc2c(oc3ccccc32)c(=O)n1C
[43] Cc1ccc2c3c(c(SCC(=O)Nc4nonc4C)nc2c1)CCCC3
[44] CC(=NNC(=O)CNC(=O)/C=C/c1ccccc1)c1ccco1
[45] COc1cccc(/C=N/NC(=O)CNC(=O)c2ccncc2)c1O
[46] COc1ccc(-c2nn(-c3ccccc3)cc2C(=O)Nc2cccc(S(=O)(=O)NC3=NCCC3)c2)cc1
[47] Cc1ccc(NC(=O)CNC(c2ccccc2)c2ccccc2)c(F)c1
[48] O=C(Cc1cccs1)Nc1nc2c(ccc3ccccc32)s1

assay / entry,41,42,43,44,45,46,47,48
ugtP null kill,/,6.8,-7.0,2.1,/,-9.3,33.7,-23.6
BJeLR viability,-8.3,8.3,5.2,/,-1.0,/,7.2,-5.5
Mtb hypoxia inh,/,4.4,3.3,13.1,/,8.8,4.8,0.0
Mtb hypoxia inh growth,/,4.3,1.4,2.4,/,-0.3,-6.5,-6.7
RN4220 kill,/,4.1,1.5,3.9,/,-4.7,2.6,-8.7
PrP 5UTR inh,3.3,-6.8,-10.9,/,0.7,-7.4,-11.5,-36.5
Bead autofluor,3389,5668,23233*,/,5967,4076,2219,2841

[49] CCOc1ccc(C(=O)N(c2ccccn2)C2CCCCC2)cc1
[50] CN(C)C1(CNC(=O)C2CCN(S(=O)(=O)c3ccccc3C(F)(F)F)CC2)CCCCC1
[51] O=c1c2ccccc2nc(Cc2ccccc2)n1-c1ccccc1O
[52] O=C1CC(c2cccnc2)=NN1c1ccc(Cl)cc1Cl
[53] COc1ccc(Cl)cc1C(=O)NNC(=O)c1cccs1
[54] CC(C)CN1C(=O)C(=Nc2cccnc2)c2ccccc21
[55] Cc1cc(C(=O)Nc2ccc(Cl)c(S(=O)(=O)N3CCOCC3)c2)c2ccccc2n1
[56] CC1CC(NC(=O)N(C)C)N(C)C(=O)N1 (configuration not stated)

assay / entry,49,50,51,52,53,54,55,56
ugtP null kill,0.9,7.2,3.8,2.7,0.2,3.8,-8.8,2.4
BJeLR viability,12.1,2.3,-4.3,0.6,/,-4.1,/,-0.3
Mtb hypoxia inh,12.5,10.7,12.7,-2.7,3.6,8.8,6.9,5.1
Mtb hypoxia inh growth,5.2,9.7,-0.3,-1.3,6.6,16.7,-0.8,4.0
RN4220 kill,13.5,4.2,12.7,2.5,6.8,6.4,0.4,6.3
PrP 5UTR inh,-26.7,-14.0,-29.7,-39.2,-39.6,-13.9,/,-7.6
Bead autofluor,3317,5585,6394,2577,3538,4001,5166,1894

[57] CCOCCn1c(=NC(=O)CSCC(=O)N2CCOCC2)sc2cc(OC)ccc21
[58] Cc1ccccc1N1CC(=O)N(c2ccccc2C)CC1=O
[59] CC1CN(c2sc(S(C)(=O)=O)nc2S(=O)(=O)c2ccc(Cl)cc2)CC(C)O1 (configuration not stated)
[60] COc1ccc(OC)c(CNC(=O)CCCc2cn(C)c3ccccc23)c1
[61] Cc1ccc(S(=O)(=O)N(C)c2ccc(OCC(=O)N3CCCCC3)cc2)cc1
[62] COc1ccc(C(=O)/C=C/Nc2ccc(S(=O)(=O)Nc3onc(C)c3C)cc2)cc1
[63] c1ccc(-c2noc(-c3ccc4ccccc4c3)n2)nc1
[64] Cc1noc(-c2ccccc2)c1NC(=O)Nc1ccc(Cl)cc1

assay / entry,57,58,59,60,61,62,63,64
ugtP null kill,1.9,0.7,15.3,10.7,-4.0,/,3.8,-8.1
BJeLR viability,4.6,3.3,2.2,0.2,0.1,2.2,18.7,-5.3
Mtb hypoxia inh,6.8,1.7,-6.3,12.4,9.8,/,7.5,6.3
Mtb hypoxia inh growth,9.7,3.8,-3.6,3.3,0.0,/,-2.7,-1.5
RN4220 kill,2.0,1.7,5.0,2.3,4.7,/,7.2,2.2
PrP 5UTR inh,-10.2,4.3,-1.9,-12.0,2.7,-16.1,89.0*,-19.9
Bead autofluor,5827,2865,3856,5505,?,2181,9264,4536

[65] CN1CCN(c2ccc(NC(=O)COc3cccc4ccccc34)cc2)CC1
[66] Cc1ccc2c(Cl)cc(Cl)c(OCC(=O)N3CCCC3)c2n1
[67] S=c1[nH]nc(C2CCCCC2)n1/N=C/c1ccco1
[68] O=C(CCn1cnc2ccccc21)N/N=C/C=C/c1ccccc1

assay / entry,65,66,67,68
ugtP null kill,-2.0,2.5,/,/
BJeLR viability,-0.9,-3.9,-2.6,-9.5
Mtb hypoxia inh,24.3,6.6,/,/
Mtb hypoxia inh growth,10.1,12.0,/,/
RN4220 kill,-3.0,4.0,/,/
PrP 5UTR inh,-0.1,-18.3,-19.5,-6.0
Bead autofluor,3963,3935,2528,6245
